KCNQ2 pot – KCNQ2 (rat) channel potentiation; B-score at 10 µM; CHO-K1 KCNQ2, FluxOR thallium flux fluorescence; stronger effect = higher value; AID 2239; actives 0.54% (n = 310,000); O88943;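 active = fluorescence ratio B-score at least 3 SD of library B-scores, with initial fluorescence B-score within 3 SD, cut at about 5.3 in these data; same plate scores as AID 2156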;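 note: B-score of peak minus minimum over baseline fluorescence ratio after K+ and Tl+ stimulus; positive B-score means potentiation of KCNQ2 with more thallium influx and brighter signal; only the inactives scoring about 0 or higher are listed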
Target sequence (O88943 whole entry, looked up): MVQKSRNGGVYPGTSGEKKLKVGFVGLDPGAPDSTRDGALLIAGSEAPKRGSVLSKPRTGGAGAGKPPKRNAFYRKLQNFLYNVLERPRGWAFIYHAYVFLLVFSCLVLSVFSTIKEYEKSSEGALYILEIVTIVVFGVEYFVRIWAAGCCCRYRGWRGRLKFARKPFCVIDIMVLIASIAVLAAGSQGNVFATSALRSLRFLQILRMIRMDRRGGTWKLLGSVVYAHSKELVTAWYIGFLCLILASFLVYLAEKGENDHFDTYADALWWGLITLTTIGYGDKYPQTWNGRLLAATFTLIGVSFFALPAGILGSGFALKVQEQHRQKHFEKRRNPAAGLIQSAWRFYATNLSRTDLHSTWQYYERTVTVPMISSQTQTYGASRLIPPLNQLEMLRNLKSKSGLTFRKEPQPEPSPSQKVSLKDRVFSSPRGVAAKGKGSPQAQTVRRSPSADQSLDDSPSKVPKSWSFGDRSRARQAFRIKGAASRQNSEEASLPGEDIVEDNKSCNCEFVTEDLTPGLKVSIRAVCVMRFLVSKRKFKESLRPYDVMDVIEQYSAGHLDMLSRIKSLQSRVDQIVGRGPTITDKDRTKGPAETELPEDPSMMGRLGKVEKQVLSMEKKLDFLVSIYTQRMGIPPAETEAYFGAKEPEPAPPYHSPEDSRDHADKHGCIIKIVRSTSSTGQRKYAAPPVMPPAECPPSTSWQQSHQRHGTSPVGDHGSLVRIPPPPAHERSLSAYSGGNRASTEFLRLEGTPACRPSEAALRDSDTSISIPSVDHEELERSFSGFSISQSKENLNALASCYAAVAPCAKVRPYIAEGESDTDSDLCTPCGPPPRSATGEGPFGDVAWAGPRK
KCNQ2 pot baseline – second read-out of KCNQ2 pot, no call of its own (marks repeat the call); B-score; compound at 10 µM; measured here: initial fluorescence intensity artifact check;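 brightness before thallium and not channel activity; 0 = typical well and far values either way flag optical interference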
* = called active by the depositor.

compound | KCNQ2 pot | KCNQ2 pot baseline
COC(=O)C(NS(=O)(=O)c1cccc(S(=O)(=O)NC(C(=O)OC)c2ccccc2)c1)c1ccccc1 (centres undefined) | 0.63 | -0.38
CCc1oc2c(C)c(O)ccc2c(=O)c1-c1ccc2ccccc2n1 | 0.95 | 0.09
Cc1ccc(O)c(C(=O)c2cnn(C(=O)COc3ccccc3C#N)c2)c1 | 0.14 | -0.06
CCOc1ccc(C(=O)O/N=C(\N)c2ccccn2)cc1OCC | 1.14 | 1.38
Cc1cc(OC(=O)c2c(F)cc(F)cc2F)nc(C)n1 | 0.49 | -2.38
O=C1OC(Nc2ccc(F)cc2F)c2ccccc21 (centres undefined) | 0.54 | 1.53
CNC(=O)c1nc(C)c(C2(C)CC(c3cccc([N+](=O)[O-])c3)=NO2)s1 (centres undefined) | 0.43 | 1.35
CC1=NN(S(=O)(=O)c2ccc(Cl)cc2Cl)C(=O)c2ccccc2O1 | 0.11 | 0.88
CCn1cnc2c([N+](=O)[O-])c(NS(=O)(=O)c3ccc(C)cc3)ccc21 | 0.76 | -0.34
CC(C)OCCCNc1ccc(N2C(=O)CCCC2=O)cc1[N+](=O)[O-] | 0.06 | -0.39
CC1CC(C)CN(CCCNC(=O)CC2Oc3ccccc3NC2=O)C1 (centres undefined) | 0.34 | 1.24
CC(Oc1ccccc1)C(=O)Nc1ccc(C(N)=O)cc1 (centres undefined) | 1.53 | -0.77

6 structures out of the list, arranged by number of heavy atoms, lowest first.
compound | KCNQ2 pot | KCNQ2 pot baseline
O=C1OC(Nc2ccc(F)cc2F)c2ccccc21 (centres undefined) | 0.54 | 1.53
Cc1cc(OC(=O)c2c(F)cc(F)cc2F)nc(C)n1 | 0.49 | -2.38
CCOc1ccc(C(=O)O/N=C(\N)c2ccccn2)cc1OCC | 1.14 | 1.38
CCn1cnc2c([N+](=O)[O-])c(NS(=O)(=O)c3ccc(C)cc3)ccc21 | 0.76 | -0.34
Cc1ccc(O)c(C(=O)c2cnn(C(=O)COc3ccccc3C#N)c2)c1 | 0.14 | -0.06
COC(=O)C(NS(=O)(=O)c1cccc(S(=O)(=O)NC(C(=O)OC)c2ccccc2)c1)c1ccccc1 (centres undefined) | 0.63 | -0.38

Next part:
compound | KCNQ2 pot | KCNQ2 pot baseline
O=[N+]([O-])c1nn(-c2ccc3c(c2)OCCO3)n(O)c1=NCCC1=CCCCC1 | 1.4 | -0.52
CCCOc1cccc(C(=O)NCCCNC(=O)c2cccnc2)c1 | 1.84 | 1.15
CCCCc1nnc(NC(=O)c2oc3ccccc3c2C)s1 | 0.29 | 1.81
Cc1nc(SCc2c(F)cccc2Cl)n[nH]1 | 0.01 | -0.35
CCN(CC)S(=O)(=O)c1cc(NC(=O)C(C)N2CCc3ccccc32)ccc1C (centres undefined) | 0.2 | -0.49
O=C(CC(=O)N/N=C\c1ccc(F)cc1)NCCc1ccccc1 | 1.36 | -0.3
COc1ccc(/C=C/C(=O)Nc2ccc(S(=O)(=O)Nc3onc(C)c3C)cc2)cc1OC | 0.46 | -0.83
O=C(Cn1cc(Cl)ccc1=O)c1ccc(Cl)cc1 | 1.29 | -0.02
CCOC(=O)c1c(C)[nH]c(C(=O)CSc2nnc(Nc3ccccc3F)s2)c1C | 0.1 | 0.34
O=C(CCc1ccccc1)Nc1cccc([N+](=O)[O-])c1 | 0.34 | 0.05
O=C(CS(=O)(=O)Cc1ccccc1)N1CCc2ccccc21 | 0.76 | -0.47
Cc1cc(C)nc(NC(=O)c2cccs2)c1 | 0.29 | 0.06
O=C(O)CNS(=O)(=O)c1ccc2c(c1)CCCC2 | 0.41 | 0.96
Cc1ccc(C(=O)Nn2c(N)c(S(=O)(=O)c3ccc(C)cc3)c3nc4ccccc4nc32)cc1 | 0.47 | -1.57
O=C(COc1cc(Cl)ccc1Cl)Nc1ccc2c(c1)CCC2 | 0.48 | -1.97
CSCC(C)N1CCC(CO)(CCCc2ccccc2)CC1 (centres undefined) | 1.47 | -1.35
CCCc1nnc(SCC(=O)N2CCCCC2C)n1CC1CCCO1 (centres undefined) | 2 | -1.39
CCCNCC(O)COc1ccccc1C(=O)CCc1ccccc1 (centres undefined) | 0.88 | 0.77
Cc1ccc(S(=O)(=O)N(C)C)cc1NC(=S)NCCc1ccccn1 | 0.46 | -1.58
COc1ccc(NC(=O)CSc2n[nH]c(N)n2)cc1OC | 0.92 | 0.25
Nc1ncnc2oc(-c3ccco3)c(-c3ccco3)c12 | 0.97 | -0.36
CC(/C=C/c1cccc([N+](=O)[O-])c1)=N/NC(=O)c1cccnc1 | 0.06 | -0.81
CNC(=O)CCCc1nc(-c2ccccc2Cl)no1 | 0.03 | 0.09
CCOC(=O)C1(Cc2ccccc2)CCN(Cc2cccc3nccnc23)CC1 | 0.11 | 0.76
C=CC#CC1(O)CC(C)[N+](C)(C)CC1C (centres undefined) | 0.08 | 1.43
CCCCCCCN1C=CC(=O)CC1 | 0.87 | 0.22
COC(=O)Nc1sc2c(c1C(N)=O)CCC(C)C2 (centres undefined) | 0.65 | -0.63
O=C(OCC(=O)N1CCCc2ccccc21)c1ccc(Br)o1 | 0.35 | -1.17
CO/N=C(/C)CCS(=O)(=O)c1ccccc1 | 1.91 | -1.03
Cc1cc(C)n2nc(C(=O)N/N=C/c3ccc(Cl)cc3)nc2n1 | 0.22 | 0.7
CCn1nc(C)c(NC(=O)CSc2nnc(-c3ccco3)n2C)c1C | 0.51 | -0.3
CCC1(CC)Cc2ccccc2-c2[nH]c(=S)[nH]c(=O)c21 | 3.8 | 0.69
O=C(c1ccc(-c2ccc([N+](=O)[O-])cc2Cl)o1)N1CCOCC1 | 0.36 | 0.31
CCOc1ccccc1N(CC(=O)N1CCc2ccccc2C1)S(C)(=O)=O | 0.01 | 1.09
O=C(O)CCNS(=O)(=O)c1ccccc1Br | 0.87 | -0.72
CCOC(=O)c1[nH]c2ccc(OC)cc2c1NC(=S)N1CCN(c2ccccc2OC)CC1 | 1.2 | 1.67
COc1ccc(NC(=O)CSc2nnc(C3CCCCC3)o2)c(OC)c1 | 0.07 | 1.03
Cc1nn(-c2ccccc2)c(=S)c2ccccc12 | 2.04 | -0.5
COC(=O)CC1C(=O)NCCN1C(=O)c1cc(OC)c(OC)cc1OC (centres undefined) | 0.22 | -1.21
COCCNS(=O)(=O)c1ccc2c3c(cccc13)C(=O)N2C | 0.61 | -1.83
Cc1cc2oc(=O)cc(CN3CCN(Cc4ccccc4)CC3)c2cc1C | 1.54 | 0.82
Cn1cc(Cl)c(/C(N)=N/OC(=O)c2ccccc2C(F)(F)F)n1 | 0.9 | 0.06
Cc1c(N=C2C(=O)Nc3ccccc32)c(=O)n(-c2ccccc2)n1C | 0.31 | -0.05
O=C(C1=C[C@H](C2CC2)C[C@H](OCCCCO)O1)N1CCN(Cc2ccc3c(c2)OCO3)CC1 | 0.03 | -1.59
CCCc1nc(SCC(=O)N2CCC(Cc3ccccc3)CC2)c2c(=O)n(C)c(=O)n(C)c2n1 | 22.9* | -2.33*
Clc1ccccc1Nc1nnc(-c2ccncc2)s1 | 0.92 | 0.9
Cc1ccc(CN2C(=O)c3ccccc3Sc3ccc(C(=O)NCCCN4CCOCC4)cc32)cc1 | 0.43 | 0.1
O=C(CSc1nnc(NC(=O)c2ccccc2F)s1)Nc1ccccc1F | 0.38 | -0.21
COC(=O)CCC(=O)N1CCCC(CO)(Cc2ccccc2C)C1 (centres undefined) | 0.29 | -0.1
C/C=C(/C)C(=O)Nc1cccc(C2=NOC3(C2)C[C@@H](C(N)=O)N(C(=O)c2ccc(OC)cc2)C3)c1 (some centres undefined) | 0.23 | -0.07
O=S(=O)(c1ccc2ccccc2c1)N1CCN=C1SCc1cccnc1 | 1.18 | 0.58
CC1=CC(C)(C)NC(=S)N1c1ccc2ccccc2c1 | 0.05 | -1.27
CCCOc1ccc(CSC(CC(=O)O)C(=O)O)cc1 (centres undefined) | 1.42 | 2.77
O=C(Cc1ccc(NC2=NC3CS(=O)(=O)CC3S2)cc1)NCCc1ccccc1 (centres undefined) | 0.99 | -1.25
CC1(C)Oc2ccc3ccc(=O)oc3c2/C(=C/NC2CCCCC2)C1=O | 0.9 | 0.01
CC(=O)Oc1ccc(CCC(C)OC(C)=O)cc1 (centres undefined) | 0.53 | -2.32
CS(=O)(=O)c1ccc(NCCN2CCOCC2)c([N+](=O)[O-])c1 | 0.27 | -0.8
COc1ccc(CCNC(=O)C2CCCN(c3nc4ccccc4s3)C2)cc1OC (centres undefined) | 1.43 | -1.48
COC(=O)[C@@H](Cc1ccccc1)NC(=O)NCCc1ccc(OC)c(OC)c1 | 0.86 | 1.85
CC(=O)Oc1ccc2occ(C(=O)c3cccs3)c2c1 | 2.3 | -0.69

Other structures follow:
compound | KCNQ2 pot | KCNQ2 pot baseline
COc1ccc(OC(=O)N2CCOCC2)cc1 | 0.23 | -0.83
NC(=O)c1ccc(/C(N)=N/S(=O)(=O)c2cc(C(F)(F)F)cc(C(F)(F)F)c2)cc1 | 1.46 | 0.03
Cn1c(CCN2CCN(c3ccccn3)CC2)nc2cc(NC(=O)COc3ccc(Cl)cc3)ccc21 | 0.28 | -1.1
CCNS(=O)(=O)c1ccc(CCC(=O)N2CCN(c3cccc(Cl)c3)CC2)cc1 | 1.33 | 0.03
CC(=O)Nc1ccc(/C=N/NC(=S)NC(C)C)cc1 | 0.38 | 0.37
CCOc1cc(C(=O)N/N=C/C(Br)=C/c2ccccc2)cc(OCC)c1OCC | 0.16 | -0.08
Cc1c(OCC(=O)N[C@@H](Cc2c[nH]c3ccccc23)C(=O)O)ccc2c1oc(=O)c1ccccc12 | 0.01 | 0.4
COc1ccc(Cl)cc1N(C)C(=O)CCNC(=O)Cn1cnc2ccccc2c1=O | 0.32 | 0.13
O=C(NCc1ccccc1)C12CC3CC(CC(C3)C1)C2 | 2.5 | 1.29
O=C(NCCCN1CCOCC1)C(=O)N/N=C/c1c2ccccc2cc2ccccc12 | 0.72 | 0.01
Cc1ccnc(NC(=O)CCc2c(C)nc3ncnn3c2C)c1 | 0.86 | -0.52
CCOc1ccc(/C=N/Nc2ccccn2)cc1 | 1.17 | -0.9
C/C(=N\NC(=O)c1nn(C)cc1Br)c1ccncc1 | 1.01 | 0.19
Cc1ccc(C)c(OCCC(=O)NCCc2ccc(Cl)cc2)c1 | 1.08 | -0.58
CCCN1CCc2c(sc(NC(=O)Cc3ccc(F)cc3)c2C(N)=O)C1 | 2.02 | 0.43
Cc1cccc(OCc2nnc(SCC(=O)Nc3sc(C)c(C)c3C#N)n2C)c1 | 0.94 | 0.59
O=C(c1ccncc1)N1CCN(S(=O)(=O)c2ccc3ccccc3c2)CC1 | 0.69 | -0.13
CC(=O)c1ccc(Nc2cc(C)nc3ncnn23)cc1 | 0.34 | -0.77
CCc1cccc(CC)c1NC(=O)Cn1c(-c2ccc(F)cc2)noc1=O | 1.55 | -1.21
O=C(NCc1cccs1)C1CC(O)CN1C(=O)Nc1ccccc1 (centres undefined) | 0.76 | -0.02
COc1cc(C)c(N)cc1C(C)C | 1.39 | 0.89
CC(C)COc1cccc(C(=O)Nc2ccc(CN3CCOCC3)cc2)c1 | 1.84 | -1.89
Cc1cc(C)n(CC(=O)NC2CCCc3c2cnn3-c2ccc(C)c(C)c2)n1 (centres undefined) | 1.1 | -0.26
COCCn1c(C)cc(C(=O)COC(=O)CCN2C(=O)c3ccccc3C2=O)c1C | 0.43 | 0.7
CCOc1cc(NC(=S)NCCCN2CCOCC2)c(OCC)cc1NC(=O)c1cccc(F)c1 | 0.82 | -3.26
Cc1ccc(S(=O)(=O)N2CCOCC2)cc1C(=O)N(C)CCOc1ccc(Cl)cc1 | 0.07 | -0.56
OCc1cc(CO)c(O)c(CCc2ccccc2)n1 | 3.26 | -0.8
c1ccc(-c2nnc(N3CCOCC3)nc2-c2ccccc2)cc1 | 0.13 | -0.4
COc1ccc(NS(=O)(=O)c2cccc(NC(=O)CCS(=O)(=O)c3ccccc3)c2)cc1 | 1.28 | -0.25
COc1ccc(/C=N/NC(=O)c2[nH]nc3c2CCc2ccccc2-3)cc1OC | 0.35 | -2.8
CC(C)[C@H](NC(=O)C1CCN(S(=O)(=O)c2ccccc2)CC1)C(=O)NCc1ccco1 | 0.41 | 1.7
Cc1cc(NC(=O)c2cc(-c3ccc(O)cc3)on2)no1 | 0.43 | -1.22
Cc1cc(OC(C)C)c2c(-c3ccccc3)cc(=O)oc2c1 | 0.67 | -1.97
CC1CCc2c(sc(NC(=O)c3ccccc3C(=O)O)c2C#N)C1 (centres undefined) | 3.91 | -2.62
CCN(CC(=O)Nc1c(F)cccc1F)C(=O)c1ccc2ncsc2c1 | 1.03 | -1.66
CCOc1ccc(NC(=O)CC2C(=O)N(c3ccc(OC)cc3)C(=S)N2Cc2ccccn2)cc1 (centres undefined) | 0.45 | -0.29
Cn1c(CCNS(=O)(=O)c2ccccc2)nc2cc([N+](=O)[O-])ccc21 | 0.65 | 0.95
CC(=O)NCCN=Cc1sc2ccccc2c1O | 0.73 | -0.09
CN1CCN(CCC(=O)Nc2ccc(OCc3ccccc3)cc2)CC1 | 0.96 | 1.15
COc1ccc(C(=O)Nc2ccc(NC(=O)c3cccs3)cc2)cc1Cl | 1.26 | 0.01
CC(C)(CNC(=O)c1ccccc1F)CNC(=O)c1ccccc1F | 1.11 | -0.29
CCOC(=O)c1c(NC(=O)COC)sc(C(C)=O)c1C | 0.14 | 0.41
O=C1c2ccccc2C(=O)N1Nc1ccc([N+](=O)[O-])cc1[N+](=O)[O-] | 1.02 | -2.15
Cc1ccc(NC(=S)N2CCOCC2)cc1 | 0.03 | -0.31
CC(C)C(=O)Nc1cccc(C(=O)Nc2ccccc2C(=O)O)c1 | 3.91 | -0.62
CCOC(=O)c1sc2nc3n(c(=O)c2c1C)CCCCC3 | 0.26 | 0.73
O=C(COc1ccccc1)NNc1nc2c(F)cccc2s1 | 0.89 | -1.35
COc1ccc(N(C(=O)/C=C/C(=O)Nc2cc(C)on2)C(C(=O)NC2CCCC2)c2ccccc2C)cc1 (centres undefined) | 1.09 | 0.1

High-throughput results from PubChem.

The list is partial; count on the stated rates, not on these rows.
